Screening results deposited in PubChem BioAssay by National Center for Advancing Translational Sciences (NCATS).
VDR inh = blocks the human vitamin D receptor; Potency, µM, for inactives: max response, negative = inhibition, actives largely listed as inhibitors; AID 504847; VDR-SRC2-3 peptide fluorescence polarization, 2 h; 400,000 compounds, 0.93% hits; P11473; active = well fitted inhibition curve with a large enough effect; inconclusive = small, poorly fitted or top-dose-only effect, or another doubt; inactive = no such curve, though single readings can be large or run the other way; note: series mostly up to about 120 µM
Target sequence (P11473 whole entry, looked up): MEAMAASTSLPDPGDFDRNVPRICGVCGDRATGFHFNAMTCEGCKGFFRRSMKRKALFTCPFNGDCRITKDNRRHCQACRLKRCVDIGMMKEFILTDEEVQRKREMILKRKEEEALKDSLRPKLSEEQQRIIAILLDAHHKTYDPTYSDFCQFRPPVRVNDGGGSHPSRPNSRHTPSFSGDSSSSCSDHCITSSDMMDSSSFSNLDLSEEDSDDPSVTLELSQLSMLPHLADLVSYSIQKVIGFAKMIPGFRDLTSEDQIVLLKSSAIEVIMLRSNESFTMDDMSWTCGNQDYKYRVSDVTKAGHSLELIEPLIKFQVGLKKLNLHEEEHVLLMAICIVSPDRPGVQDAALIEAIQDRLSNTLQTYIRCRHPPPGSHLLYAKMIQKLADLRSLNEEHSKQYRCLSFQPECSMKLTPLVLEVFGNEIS
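Fluorescence polarization assay measuring small-molecule disruption of VDR binding to the coregulator peptide SRC2-3. Compounds were pin-transferred (23 nl) into the reagent mix and incubated 2 h at room temperature before reading.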
An asterisk follows results filed as active; ? = inconclusive; & = joins results of further samples. % is set by controls: 0 for no effect and ±100 for the full control effect; potency is the fitted concentration of half-maximal effect. Only part of the results is shown; the hit share may differ from the screen's.

VDR inh	SMILES
9%	Cc1cc(C)c(S(=O)(=O)c2cccc(Cl)c2)c(=O)[nH]1
-8%	COC(=O)c1c(S(C)(=O)=O)nc(-c2ccccc2)[nH]c1=O
?	Cc1cc(Cl)ccc1NC(=S)N(CCCN1CCOCC1)Cc1cccs1
?	CC(C)NC(=O)c1ccccc1NC(=O)C1COc2ccccc2O1 (configuration not stated)
?	O=c1c(O)c(-c2ccc(O)c(O)c2)oc2c(OC3OC(CO)C(O)C(O)C3O)c(O)cc(O)c12 (configuration not stated)
-2%	COc1ccc(C(=O)c2sc3nc4c(c(C(F)(F)F)c3c2N)CN(C(C)=O)CC4)cc1OC
-15%	COc1ccc(-c2nc3ccccc3o2)cc1NC(=O)c1cccc2c(Cl)cccc12
10%	CC(=O)Nc1ccc(C(C#N)c2ccccc2)cc1 (configuration not stated)
4%	COc1ccccc1Cc1nc2ccccc2nc1SCC(=O)NCc1ccc(F)cc1
20%	CCCCN1CCCc2cc(CN(CCCN3CCOCC3)C(=O)Nc3ccc(CC)cc3)ccc21
-5%	Cn1c(CN2CCCCC2)nc2cc(NC(=O)c3ccccc3)ccc21
-5%	CN(C1=NC(=O)C(CC(=O)O)S1)c1ccc(O)cc1 (configuration not stated)
-2%	COc1cccc(NC(=O)Cn2nc(-c3ccncc3)ccc2=O)c1
-12%	CSCCC(NC(=O)c1ccco1)C(=O)N1CCN(Cc2ccccc2)CC1 (configuration not stated)
4%	COc1ccc(N2C(=O)c3ccc(C(=O)Nc4cc(OC)ccc4OC)cc3C2=O)cc1

2 successive records from above, for reference:
VDR inh	SMILES
20%	CCCCN1CCCc2cc(CN(CCCN3CCOCC3)C(=O)Nc3ccc(CC)cc3)ccc21
-5%	Cn1c(CN2CCCCC2)nc2cc(NC(=O)c3ccccc3)ccc21

Following part
VDR inh	SMILES
-19%	Nc1ccc(-c2cc(N)n(-c3ccccc3)n2)cc1
11%	Cc1cccc(N2CCN(C(=O)c3cccc(N4CCCC4=O)c3)C(C)C2)c1 (configuration not stated)
3%	CCCCOC(=O)c1ccc(NC(c2ccc(C)cc2)P(=O)(OC)OC)cc1 (configuration not stated)
0%	CC(C)[C@@H](CC(=O)N[C@@H]1CCCC[C@H]1C(=O)N[C@H](CC(=O)N[C@@H](CCC(=O)O)CC(=O)O)Cc1c[nH]c2ccccc12)NC(=O)C[C@H](Cc1c[nH]c2ccccc12)NC(=O)[C@@H]1CCCC[C@H]1N
-8%	Fc1cccc(NCc2ccoc2)c1
5%	Cc1noc(C)c1-c1nc(Nc2ccccc2)c2ccccc2n1
-22%	Cc1ccc(C(=O)N/C(=C\c2ccco2)C(=O)NCCN2CCOCC2)cc1C
8%	CCCC(=O)Nc1ccc(NC(=O)Cc2ccccc2)cn1
-4%	CCOC(=O)c1c(C)c(-c2ccccc2)n(CC(=O)NCCC(C)C)c1C
9%	CC(C)Cn1c(N)c(C(=O)COC(=O)c2ccc(Cl)cc2)c(=O)n(C)c1=O
14%	CN(NC1OC(=O)c2ccccc21)c1ccc(Cl)cc1[N+](=O)[O-] (configuration not stated)
6%	Cc1ccc2c(=O)cc(C(=O)Nc3ccc(S(=O)(=O)N4CCCCCC4)cc3)oc2c1C
-11%	C[C@@H](C1[C@@H](O)CC2C3C=CC4C[C@@H](O)CC[C@]4(C)[C@H]3CC[C@@]21C)[C@@H]1CCCCN1 (some centres not stated)
-4%	COC(CNC(=O)c1c[nH]c2ccc(S(=O)(=O)N3CCOCC3)cc2c1=O)OC
5%	O=C(O)C1CC(C2CCCCN2)CN2CCCCC12 (configuration not stated)

Arranged by molar mass (lowest first): 7 of the compounds above.
VDR inh	SMILES
5%	O=C(O)C1CC(C2CCCCN2)CN2CCCCC12 (configuration not stated)
5%	Cc1noc(C)c1-c1nc(Nc2ccccc2)c2ccccc2n1
11%	Cc1cccc(N2CCN(C(=O)c3cccc(N4CCCC4=O)c3)C(C)C2)c1 (configuration not stated)
9%	CC(C)Cn1c(N)c(C(=O)COC(=O)c2ccc(Cl)cc2)c(=O)n(C)c1=O
-11%	C[C@@H](C1[C@@H](O)CC2C3C=CC4C[C@@H](O)CC[C@]4(C)[C@H]3CC[C@@]21C)[C@@H]1CCCCN1 (some centres not stated)
-4%	COC(CNC(=O)c1c[nH]c2ccc(S(=O)(=O)N3CCOCC3)cc2c1=O)OC
6%	Cc1ccc2c(=O)cc(C(=O)Nc3ccc(S(=O)(=O)N4CCCCCC4)cc3)oc2c1C

More structures follow:
VDR inh	SMILES
-29%	Cc1[nH]c(=S)[nH]c(=O)c1Cc1c(O)ccc2ccccc12
-13%	O=C(NCc1ccco1)Nc1ccc2nsnc2c1
10%	O=C(c1ccc(Cn2cc(Cl)cn2)cc1)N1CCN(c2ccccc2)CC1
?	CC1CCCC(NC(=O)CCS(=O)(=O)c2ccc3c(c2)NC(=O)CS3)C1C (configuration not stated)
-2%	c1ccc(C(c2ccccc2)N2CCN(c3nc4ccccc4n4cnnc34)CC2)cc1
2%	Cc1ccc2nc(-c3cccc(SC4CCCCC4)c3)c(NC3CCCCC3)n2c1
-13%	C/C(CC(=O)Nc1cccc(Cl)c1Cl)=N\NC(=O)c1ccccc1C
5%	CCOc1ccc(NC(=O)CN(Cc2ccccc2)S(=O)(=O)c2ccc3nc(C)sc3c2)cc1
15%	Cc1nnc(NC(=O)C(C)Oc2ccc3c(C)cc(=O)oc3c2)s1 (configuration not stated)
0%	CC(C)CCn1nnnc1C(c1ccccc1)N1CCC(C(N)=O)CC1 (configuration not stated)
-13%	Cn1nc(C(=O)NCc2cccs2)c2ccccc2c1=O
-14%	CCC(=O)Nc1sc2c(c1C#N)CC(C)(CC)OC2 (configuration not stated)
10%	O=C(CS(=O)(=O)c1cccc2nsnc12)Nc1ccc(F)cc1F
4%	Cc1cc(C)cc(NC(=O)C(=O)NCC(c2cccnc2)N2CCc3ccccc3C2)c1 (configuration not stated)
4%	CC(C)(C)C(=O)Nc1nc(NC(=O)C(C)(C)C)nc(-c2ccccc2Cl)n1

VDR inh	SMILES
-13%	c1ccc(-c2csc(CN3CCCCC3)n2)cc1
-23%	Cc1coc(C)c1C(=O)CC1(O)C(=O)N(Cc2ccccc2)c2ccccc21 (configuration not stated)
-2%	Cc1cc(C)c(CSc2ncnc3nc[nH]c23)c(C)c1
-17%	O=C(NC1CCCCC1)c1cc2c(Cl)nc3ccccc3c2s1
14%	O=C(O)c1ccc(NS(=O)(=O)/C=C/c2ccccc2)cc1
-10%	Nc1nnc(SCC(=O)c2ccc3c(c2)NC(=O)CO3)s1
-4%	CCCN(C(=O)c1ccco1)c1nnc(-c2cccc(C)c2)s1
?	CC1CCN(CCCCOc2ccccc2F)CC1
19%	CCOC(=O)c1cc2sccc2n1CCCN1C(=O)c2ccccc2C1=O
11%	O=C(CC1SC(=Nc2ccc(O)cc2)NC1=O)Nc1ccccc1 (configuration not stated)
-6%	CN1CCc2c(sc3nc(SCC(=O)N4CCOCC4)n(-c4ccc(Cl)cc4)c(=O)c23)C1
-11%	O=C(c1ccc(Cl)cc1)N1CCN(c2ncccn2)CC1
-26%	CCSC1=C(C#N)C(c2ccc(C)o2)CC(=O)N1 (configuration not stated)
-9%	OCC[C@H]1C[C@H](O)[C@@H](O)[C@]2(CCCO2)O1
-7%	O=C(NN1C(=O)/C(=C/c2ccc(O)c(O)c2)SC1=S)c1ccccc1

VDR inh	SMILES
-5%	Cc1ccc(-n2ncc3c2CCCC3NC(=O)c2csnn2)cc1C (configuration not stated)
1%	COc1ccc(-c2nsc(SCC(=O)NCC3CCCO3)n2)cc1 (configuration not stated)
10%	COC(C(=O)Nc1cccc([N+](=O)[O-])c1)c1ccccc1 (configuration not stated)
7%	Cc1nc(-c2ccccc2)sc1-c1ccc(SCC(=O)Nc2ccc(F)cc2F)nn1
-19%	CCCCC1=CC2=CC(=O)C(C)(OC(=O)CC)C(=O)C2=CN1C1CCCC1 (configuration not stated)
-7%	CC[C@@]12C(=O)N(c3ccc(OC)cc3)C(=O)N1[C@H](c1ccc(Cl)cc1)[C@@H]1C(=O)N(C3CCCCC3)C(=O)[C@@H]12
-13%	O=C(Nc1ccc(F)cc1)Nc1ccc(Oc2ncnc3cc(Cl)ccc23)nc1
-13%	O=C(c1cc2c(s1)CCC2)N1CCN(c2ccccc2)CC1
-17%	O=C(CSc1ncnc2c1cnn2CCO)Nc1cccc(C(F)(F)F)c1
-3%	Cc1cc(C(=O)C(C)OC(=O)C2=NNC(=O)CC2)c(C)n1-c1ccc(OC(F)F)cc1 (configuration not stated)
71µM*	COc1ccc(N2CCN(CCC(=O)c3ccc4ccccc4c3)CC2)cc1
9%	CCc1nn2c(=O)cc(COC(=O)c3cccc(NC(=O)CCc4ccccc4)c3)nc2s1
2%	CC(=O)c1ccc(N2CCN(S(=O)(=O)c3c(C(=O)N4CCCCC4)c(C)n(C)c3C)CC2)cc1
-13%	COc1ccccc1N1CCN(CC(=O)Nc2nc(C)c(C(=O)N(C)C)s2)CC1
22%	Cc1cc(C(=O)COC(=O)c2ccc(NC(=O)CC#N)cc2)c(C)n1-c1ccc(OC(F)F)cc1

With a hit mark in VDR inh (from the list above):
VDR inh	SMILES
71µM*	COc1ccc(N2CCN(CCC(=O)c3ccc4ccccc4c3)CC2)cc1

Other records follow:
VDR inh	SMILES
5%	CCOC(=O)C1C(=O)C=C(c2ccc(C)cc2)CC1c1ccccc1 (configuration not stated)
-20%	O=S(=O)(Nc1nc2ccccc2nc1NCc1ccco1)c1ccc(F)cc1
5%	CN1C(=O)c2ccccc2Sc2ccc(NC(=O)c3ccccc3F)cc21
10%&-11%	COC(=O)c1ccccc1NC(=O)c1ccc(F)cc1
0%	Cc1ccc(CNC(=O)C(=O)NCC2OCCCN2S(=O)(=O)c2ccc(F)cc2)cc1 (configuration not stated)
-2%	CC1CC(C)CN(CCCNC(=O)CN2C(=O)c3cccnc3Oc3ccc(Cl)cc32)C1 (configuration not stated)
-8%	CSc1ccccc1OCc1cc(C(=O)NCCCn2nc(C)cc2C)no1
-23%	COc1ccc(-c2nc(C#N)c(NCCN(C)C)o2)cc1
-2%	COc1ccc(CNC(=O)CN(c2cccc(OC)c2)S(C)(=O)=O)cc1
2%	COc1ccccc1NC(=O)c1cccc(S(=O)(=O)N2CCOCC2)c1
-5%	Cc1cn(CC(=O)NCCCc2ccccc2)c(=O)[nH]c1=O
-14%	CC(=O)Nc1ccc(S(=O)(=O)Nc2cccc(-c3nc4cc(C)ccc4o3)c2)cc1
5%	O=C(CSc1cccc[n+]1[O-])N1CCCc2ccccc21
-16%	O=C(CN1CCCCC1)Nc1ccc(F)c(Cl)c1
9%	CCCOc1ccc(N2C(=O)CC(NCCNc3ccc(S(=O)(=O)CC)cc3)C2=O)cc1 (configuration not stated)

VDR inh	SMILES
5%	Cc1ccc(S(=O)(=O)NCc2cc(=O)n(C)c(=O)n2C)cc1C
1%	COc1ccc(CN(C)CC(=O)NC(C)c2ccccc2)c(OC)c1 (configuration not stated)
-1%	COc1cc2c(cc1OC)CN(C(=O)C1(c3ccccc3)CC1)CC2
17%	CCc1ccc2[nH]c3nc(C)cc(C)c3c(=O)c2c1
13%	COCCn1c(C)cc(C(=O)COC(=O)/C=C/c2ccc(OC)cc2OC)c1C
-19%	Cc1ccnc(SCCn2c(N3CCN(C)CC3)nc3c2c(=O)n(C)c(=O)n3C)n1
-19%	O=C(Nc1ccc(F)cc1)c1ccc(CN2CCc3ccccc3C2)cc1
18%	CCN1CCN(c2ccc(N=Cc3ccc(O)cc3O)cc2)CC1
1%	CCN(CC)CCN1C(=O)C(O)=C(C(=O)c2ccco2)C1c1ccccn1 (configuration not stated)
5%	CC1CSc2ccccc2NC1=S (configuration not stated)
-8%	C=CCn1c(=O)c2ccccc2n2nnc(C(=O)OCC)c12
-13%	CCOc1ccc(NC(=O)NCc2cccn2C)cc1
-11%	O=C(CCCCl)NC1=NN(c2ccccc2)C(=O)C1
-20%	Cc1[nH]c2ccccc2c1C(c1ccccc1)c1ccc(Cl)s1 (configuration not stated)
-1%	O=C(NCCCN1CCCC1=O)Nc1ccc(Cl)cc1Cl

Brought forward from above: 7 entries, then new ones.
VDR inh	SMILES
1%	CCN(CC)CCN1C(=O)C(O)=C(C(=O)c2ccco2)C1c1ccccn1 (configuration not stated)
5%	CC1CSc2ccccc2NC1=S (configuration not stated)
-8%	C=CCn1c(=O)c2ccccc2n2nnc(C(=O)OCC)c12
-13%	CCOc1ccc(NC(=O)NCc2cccn2C)cc1
-11%	O=C(CCCCl)NC1=NN(c2ccccc2)C(=O)C1
-20%	Cc1[nH]c2ccccc2c1C(c1ccccc1)c1ccc(Cl)s1 (configuration not stated)
-1%	O=C(NCCCN1CCCC1=O)Nc1ccc(Cl)cc1Cl
23%	O=C1c2ccccc2NC2CCCCCN12 (configuration not stated)
-19%	O=C(O)C1C2C=CC(O2)C1C(=O)Nc1ccc(S(=O)(=O)Nc2ccccc2)cc1 (configuration not stated)
-3%	CCN(CC)CCNC(=O)c1ccc(NC(=O)c2cc(S(=O)(=O)N3CCCCC3)ccc2N2CCOCC2)cc1
-11%	C=C1Cc2c(Cl)cc3[nH]c4c5c3c2[C@@]2(O)[C@@H]1C[C@@H]2C(C)(C)O[C@H]5[C@@H]1CC[C@@]2(O)[C@@]35O[C@@H]3[C@@H](O)[C@@H](C(=O)O)O[C@H]5CC[C@]2(C)[C@@]41C
-6%	COc1ccc(Cl)c2sc(N(CCN(C)C)C(=O)CCS(=O)(=O)c3ccc(C)cc3)nc12
-1%	Cc1ccc(NC(=O)COC(=O)c2ccc([N+](=O)[O-])s2)c(C)c1
-4%	CC1(CC(=O)N/N=C/c2ccc(-c3ccc(C(=O)O)cc3)o2)OCCO1
-16%	C=CCn1c(SCc2nc3sc(C(=O)O)c(C)c3c(=O)[nH]2)nnc1-c1ccccc1
22µM*	N#CC1=C2SCN(C3CCCCC3)CN2C(=O)CC1c1ccc(Cl)cc1 (configuration not stated)
